High-throughput results as filed in PubChem.
TRPML1 inh = human mucolipin-1 channel inhibition. AID 624415. actives 0.02% (n = 390,000). activity change, negative = inhibition, % (concentration not given with the values). Q9GZU1. TRPML1-inducible cells, Ca2+ dye fluorescence, FDSS; stronger effect = lower value; inhibition of EC80 agonist-evoked calcium signal; in the data active means activity change below about -50%; inconclusive means about -30% to -50%; inactive means above about -30%;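 further: stimulus is agonist 54-4 at its EC80 concentration; on the % scale 0 is the no-effect control and ±100 the full control effect; compound concentration not given in the record; the text of the record puts the active cut at -80%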
Target sequence (Q9GZU1 whole entry, looked up): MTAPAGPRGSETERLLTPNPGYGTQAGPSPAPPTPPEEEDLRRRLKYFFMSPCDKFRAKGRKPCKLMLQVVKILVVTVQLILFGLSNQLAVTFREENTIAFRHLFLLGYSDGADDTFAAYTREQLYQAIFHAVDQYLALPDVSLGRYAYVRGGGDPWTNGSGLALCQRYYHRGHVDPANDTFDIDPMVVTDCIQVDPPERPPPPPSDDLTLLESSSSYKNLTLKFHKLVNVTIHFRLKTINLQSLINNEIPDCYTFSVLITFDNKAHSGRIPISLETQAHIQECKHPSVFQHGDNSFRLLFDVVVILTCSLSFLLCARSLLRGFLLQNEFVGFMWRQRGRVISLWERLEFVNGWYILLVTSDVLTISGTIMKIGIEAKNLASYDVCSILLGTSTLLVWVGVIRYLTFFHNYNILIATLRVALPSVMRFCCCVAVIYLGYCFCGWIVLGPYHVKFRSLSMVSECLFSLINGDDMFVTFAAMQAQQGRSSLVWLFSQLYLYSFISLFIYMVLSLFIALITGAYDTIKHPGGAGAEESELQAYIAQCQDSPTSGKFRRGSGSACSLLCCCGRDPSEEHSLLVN
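TRPML1-DL cells, Tet-induced overnight (~16 h, 37 °C) at 1,500 cells/well, were loaded with Ca8 no-wash dye plus quencher for 45-90 min at room temperature. Compounds were pinned during FDSS kinetic reading; agonist 54-4 at EC80 (4 uM final) then added.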
TRPML1 agonist = human mucolipin-1 channel agonism | AID 624414 | activation, % (no concentration beside the values) | TRPML1-expressing cells, Ca2+ dye fluorescence, FDSS; host cell line not named in the record; reference of the full effect not given here | Q9GZU1 | actives 0.12% (n = 410,000); in the data active = activation above about 50%; inconclusive = about 30% to 50%; inactive = below about 30%; further: 0% is about no effect; the text of the record puts the active cut at 80%
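Cells: TRPML1-DL, 1X Tet inducer, ~16 h at 37 degrees C/5% CO2. Dye: ABD Ca8 no-wash + quencher, 45-90 min RT. Read: 10 s baseline, compound add, 110 s agonist phase; 54-4 EC80 (4uM final), 110 s antagonist phase.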
D2 ag = activates the human D2 dopamine receptor; P14416; DiscoveRx PathHunter D2 beta-arrestin, luminescence, 90 min; 100% = 57 uM dopamine signal; activation, % (no concentration beside the values); actives 0.084% (n = 360,000); in the data active = activation above about 40%; inconclusive = about 15% to 40%; inactive = below about 15%; further: compound concentration not given in the record; the text of the record calls up to 30% inactive
Target sequence (P14416 whole entry, looked up): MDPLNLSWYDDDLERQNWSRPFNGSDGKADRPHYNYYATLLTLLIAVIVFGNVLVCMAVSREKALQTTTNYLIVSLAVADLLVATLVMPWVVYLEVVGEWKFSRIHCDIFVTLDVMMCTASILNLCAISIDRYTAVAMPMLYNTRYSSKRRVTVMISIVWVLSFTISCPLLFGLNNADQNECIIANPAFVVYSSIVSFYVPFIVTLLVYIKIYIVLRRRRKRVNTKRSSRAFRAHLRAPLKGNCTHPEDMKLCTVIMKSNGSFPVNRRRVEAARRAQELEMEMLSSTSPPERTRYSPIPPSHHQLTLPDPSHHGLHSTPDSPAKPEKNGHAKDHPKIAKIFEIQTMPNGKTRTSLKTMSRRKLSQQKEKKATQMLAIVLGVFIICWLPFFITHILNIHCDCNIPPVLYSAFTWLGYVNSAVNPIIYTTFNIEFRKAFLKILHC
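Agonist mode: compounds alone added to overnight-plated D2 PathHunter cells for 90 min at 37 C, with 57 uM final dopamine (EC100) defining full response. Beta-arrestin recruitment detected by chemiluminescent reagent, read after 1 h at ambient temperature.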
PINK1 modulator = modulators of PINK1 expression | actives 0.2% (n = 410,000) | Potency, µM (top dose mostly 76.6 µM), without a hit: at the top dose activation (PINK1 increase), usual class: activators | PINK1 immunofluorescence, high-content cytometry, 24 h; active = well fitted activation curve with a large enough effect; inconclusive = small, poorly fitted or top-dose-only effect; inactive = flat fitted curve, though single readings scatter; cell line not stated here;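 further: potency means the concentration at half of the fitted maximal effect; % of control where 0% means no effect; nearly all actives have a fitted effect of over 65% in size; a mitochondrial uncoupler was the plate control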
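Compound titrations (5 concentrations, 24 h) on a stable cell line; DMSO and CCCP controls. Endpoint: fixed-cell PINK1 immunofluorescence with mitochondrial, cell and nuclear markers, scanned by microplate cytometer.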
CtBP-E1A inh = inhibitors of CtBP/E1A interaction. AlphaScreen GST-E1A/His-CtBP binding, 1536-well; stronger effect = lower value; control for the full effect not named in the record. activity change, % (test concentration not listed). actives 0.49% (n = 340,000). AID 651724; in the data active means activity change below about -65%; inconclusive means about -30% to -65%; inactive means above about -30%; further: on the % scale 0 is the no-effect control and ±100 the full control effect; compound concentration not given in the record
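AlphaScreen with 125 nM GST-E1A and 125 nM His-CtBP (5X stocks) in Tris pH 8.0, 300 mM NaCl, BSA, Tween 20, TCEP. Compounds preincubated 2 h at 37 deg C, then glutathione donor/nickel acceptor beads added for 1 h at 37 deg C in dark.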
Six1-Eya2 inh = blocks human Six1 binding to Eya2; activity change, % (test concentration not listed); actives 0.56% (n = 360,000); AlphaScreen GST-Six1/His-Eya2 binding, biochemical; stronger effect = lower value; control for the full effect not named in the record; Q15475+O00167; in the data active = activity change below about -65%; inconclusive = about -30% to -65%; inactive = above about -30%; further: on the % scale 0 is the no-effect control and ±100 the full control effect; compound concentration not given in the record
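Six1/Eya2 binding was read as AlphaScreen signal after compounds were pinned into GST-Six1 plus His-tagged Eya2 (5X stock 250/500 nM) in pH 8.0 Tris/NaCl/TCEP buffer, beads added, then incubated 1 h, 37 C, dark.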
The depositor's hits bear a star; ? = inconclusive; nt = not tested or not shown; [ ] = dose if it differs, or a comment.

SMILES	TRPML1 inh	TRPML1 agonist	D2 ag	PINK1 modulator	CtBP-E1A inh	Six1-Eya2 inh
CCN(C(=O)COC(=O)CCc1ccccc1)c1ccccc1	6	0.0	-5.0	1.4%	2	10
NC(=O)c1nsc(C(=O)N(c2ccc3c(c2)OCO3)C(C(=O)NCC2CCCO2)c2ccc(F)cc2)c1N (stereo not given)	4	-1.4	-6.7	-0.3%	-5	-7
COc1ccc(CNC(N)=O)cc1OC	-13	-0.3	-0.1	0.4%	-1	13
C=CCOc1cccc(C2/C(=C(/O)c3ccc(C)cc3)C(=O)C(=O)N2CCN2CCOCC2)c1 (stereo not given)	-3	-0.7	-2.3	1.6%	1	2
COc1ccc(CNc2nc3c(c(=O)[nH]c(=O)n3C)n2Cc2ccccc2C)cc1	-17	-0.4	-2.9	9.6%	-18	-3
O=C(/C=C/c1ccco1)Nc1ccccc1N1CCCCC1	-10	2.6	-8.6	-1.3%	nt	-7
CCOC(=O)C(C)(C)NS(=O)(=O)c1ccc(Cl)c([N+](=O)[O-])c1	13	-0.1	0.9	7.5%	-7	-13
COc1ccc(CN2CCN(Cc3cc4ccccc4o3)CC2CCO)cc1C (stereo not given)	6	-0.2	?	5.0%	-11	-3
CCN(CC)C(=O)Cn1cc(S(=O)(=O)CC(=O)Nc2ccc(F)cc2)c2ccccc21	10	-0.2	-1.6	0.8%	-2	1
CCC(=O)Nc1c2c(nn1-c1cccc(Cl)c1)CSC2	-2	-1.1	-1.3	1.7%	8	4
CCOC(=O)c1cc(/C(C)=N/OC(=O)c2ccc(Cl)cc2)on1	3	0.3	-0.7	-1.1%	5	-1
CN(CC(=O)Nc1cccc(F)c1)C(=O)CN1C(=O)NC2(CCCC2)C1=O	-26	1.9	3.2	0.2%	-2	8
Nc1nc(C23CC4CC(CC(Cl)(C4)C2)C3)cs1	-9	-0.7	-2.1	4.0%	-5	-22
CCc1noc(C)c1C(=O)NNC(=O)c1nn(CC)c(=O)c2ccccc12	?	-0.9	-5.3	1.8%	-1	-3
Cc1cc(C(F)(F)F)c2c(n1)sc1c(O)cc(=O)[nH]c12	13	1.1	-0.8	3.9%[38.3 µM]	-12	-2
CC1CCN(S(=O)(=O)c2ccc3c(c2)N(CC(=O)NCC(C)c2ccccc2)C(=O)CO3)CC1 (stereo not given)	36	3.0	nt	-1.5%	nt	nt
Nc1nc(Nc2cccc(F)c2)nc(NCc2ccco2)c1[N+](=O)[O-]	-1	4.7	-0.4	0.5%	-13	-16
Cc1ccc(NC(=O)CCC(=O)N2CCSc3ccccc32)cc1Cl	-22	3.7	nt	0.9%	nt	nt
CC(C)(C)c1ccc(C(=O)c2c[nH]c(C(=O)NCC3CCCO3)c2)cc1 (stereo not given)	4	0.1	3.3	2.5%	-2	-6
Cc1c(-c2nsc(NC(=O)c3cccs3)n2)nnn1-c1ccc(Br)cc1	12	0.7	nt	6.4%	nt	nt
COc1ccc(-c2csc(Nc3ncccc3C)n2)cc1OC	5	0.2	0.4	5.7%	-24	-28
CCCCC[C@H](O)/C=C/[C@@H]1[C@@H](C/C=C\CCCC(=O)O)[C@H]2CO[C@@H]1C2	-4	-0.6	-3.1	1.8%	-13	4
CN(C)CCN(C(=O)c1ccc(N2C(=O)CCC2=O)cc1)c1nc2cc3c(cc2s1)OCO3	-3	-0.3	0.8	2.6%	-1	-3
N=c1c(C(=O)NC2CCCC2)cc2c(=O)n3ccccc3nc2n1Cc1ccccc1	32	0.8	3.5	2.0%	nt	10
CC1=CC(=O)CC(C)(C)[C@@]1(O)/C=C/[C@@H](C)O[C@@H]1O[C@H](CO)[C@@H](O)[C@H](O)[C@H]1O	nt	nt	-2.5	-0.1%	4	10
COc1ccc(CCNC(=O)c2nnn(CC(=O)Nc3c(C)cc(C)cc3C)c2N)cc1OC	5	0.5	2.8	0.5%	nt	-3
COc1ccc(C(=O)N/N=C2\SCC(=O)N2Cc2ccc3c(c2)OCO3)c(OC)c1	-12	2.5	-4.5	7.7%	nt	0
Cc1ccccc1C(=O)N1CCC(C(=O)Nc2ccc(F)cc2F)CC1	-2	-0.1	nt	0.9%	nt	nt
COc1ccc(-n2c(=O)c3ccc(C(=O)NCc4ccc(C)cc4)cc3n(Cc3ccc(C)cc3)c2=O)cc1	9	2.7	nt	-5.0%	nt	nt
CCCCN(C(=O)c1c(C)noc1C)c1c(N)n(CCCC)c(=O)[nH]c1=O	20	0.6	0.8	1.8%	18	3
Cc1nc(CCNC(=O)c2ccccc2)cs1	-28	-0.2	-1.5	0.3%	6	9
COc1ccccc1C(=O)NNC(=O)c1sccc1-n1cccc1	2	-0.6	-3.5	4.4%	8	-1
O=C(c1n[nH]c(=O)c2ccccc12)N1CCN(c2ccccc2Cl)CC1	-16	-0.1	-3.2	5.0%	4	3
OC(CN1CCN(C(c2ccccc2)c2ccccc2)CC1)c1ccc(Br)cc1 (stereo not given)	-15	-0.4	5.8	?	nt	0
Cc1ccc(N=c2ssnc2Cl)cc1	3	-0.8	-0.9	1.1%	10	7
Oc1ccc(Br)cc1C=Nc1ccc2[nH]ncc2c1	-9	-0.3	-0.4	0.0%	-3	-23
CCCn1c(SCC(=O)NC(=O)Nc2ccc(C)cc2C)n[nH]c1=O	20	1.2	1.5	0.4%[38.3 µM]	3	0
O=C1c2ccccc2NC2(CCCC2)N1N=C1CCCC1	3	0.3	-1.2	0.9%	nt	10
Cc1cccc(C)c1NC(=O)c1sccc1SCC#N	38	1.2	-1.7	5.6%[38.3 µM]	1	3
O=c1c2ccccc2ncn1-c1ccccc1[N+](=O)[O-]	-12	0.8	-2.7	1.5%	-4	3
Cc1ccc(OCC(=O)N/N=C\c2c(C)[nH]n(-c3ccccc3)c2=O)c([N+](=O)[O-])c1	9	1.4	-6.4	-0.4%	-81*	-91*
CCCc1nnc(NC(=O)c2ccc(N3C(=O)C4C5C=CC(C5)C4C3=O)cc2)s1 (stereo not given)	-8	0.3	-1.0	1.4%[38.3 µM]	9	5
CC1=NN(c2ccccc2)C(=O)C1c1ccccc1 (stereo not given)	-4	0.0	-2.5	-0.7%	-4	2
CSc1nc2ccc(S(=O)(=O)N3CCCCC3)cc2s1	-1	-0.9	-0.8	12%[38.3 µM]	2	1
CN(C)C(C)(C)/C=C/C(O)(c1ccccc1)c1ccccc1	10	-0.1	2.3	1.2%	6	1
CCOc1cc(C(=S)N2CCOCC2)ccc1OC(=O)c1cccc(C)c1	20	3.0	0.1	-1.3%	nt	-8
O=C(Nc1ccccn1)[C@@H]1CCC(=O)N1C(=O)OCc1ccccc1	-11	-0.1	0.0	0.3%	4	8
Cc1sc(NC(=O)Nc2ccccc2)c(C(N)=O)c1C	-3	-0.8	-1.8	-1.1%	-6	-7
O=C(Nc1ccccc1)c1ccc(-n2cnnn2)cc1	-2	0.4	-0.7	-0.2%	nt	0
COC(=O)CCCC1=CC2=CC(=O)C(C)(OC(=O)c3cccs3)C(=O)C2=CN1CC1CC1 (stereo not given)	-13	0.3	6.1	0.6%	-5	-3
Cc1cc2cc(CN3C(=O)c4ccccc4C3=O)ccc2[nH]1	27	0.3	-1.0	2.2%	2	-5
Cn1c(CN2CCN(C(=O)c3ccc(F)cc3)CC2)nc2cc([N+](=O)[O-])ccc21	-7	1.3	-1.0	1.5%	6	-7
CCOc1ccc(C2=CC(c3ccccc3)n3ncnc3N2)cc1 (stereo not given)	-8	-0.4	-6.1	-0.5%	-3	-2
O=C(Nc1ccccc1Br)N1CCC(CN2CCCC2)CC1	-2	-0.1	nt	2.1%	nt	nt
COc1ccccc1OCC(=O)NNC(=O)C1CCN(c2ncnc3sc(C)c(C)c23)CC1	6	-1.4	10	0.9%	nt	-7
COCC(=O)Nc1ccc(Nc2ccccc2)cc1	9	-1.2	-3.5	0.2%	-1	-7
CNC(=S)N1N=C(c2ccc(Br)cc2)CC1c1ccc(N(C)C)cc1 (stereo not given)	21	1.4	-4.2	-0.9%	-26	?
O=C(NCc1ccc(Cl)cc1)c1ccccc1CCc1ccccc1	-7	4.7	-2.5	3.4%	37	28
c1ccc2c(c1)nc(Nc1ccc(N3CCCCC3)cc1)c1nncn12	8	0.9	5.1	4.4%	?	-8
Cc1cccc(NCC(=O)N/N=C\c2ccc[nH]2)c1	9	1.9	4.1	2.0%	-6	-2

Some of these compounds in order of count of non-hydrogen atoms, low to high.
SMILES	TRPML1 inh	TRPML1 agonist	D2 ag	PINK1 modulator	CtBP-E1A inh	Six1-Eya2 inh
Cc1cccc(NCC(=O)N/N=C\c2ccc[nH]2)c1	9	1.9	4.1	2.0%	-6	-2
O=C(Nc1ccccc1)c1ccc(-n2cnnn2)cc1	-2	0.4	-0.7	-0.2%	nt	0
Cc1cc2cc(CN3C(=O)c4ccccc4C3=O)ccc2[nH]1	27	0.3	-1.0	2.2%	2	-5
O=C(NCc1ccc(Cl)cc1)c1ccccc1CCc1ccccc1	-7	4.7	-2.5	3.4%	37	28
COc1ccccc1OCC(=O)NNC(=O)C1CCN(c2ncnc3sc(C)c(C)c23)CC1	6	-1.4	10	0.9%	nt	-7

(next part)
SMILES	TRPML1 inh	TRPML1 agonist	D2 ag	PINK1 modulator	CtBP-E1A inh	Six1-Eya2 inh
Cc1ccc(-n2nnnc2CNC(=O)c2ccccc2F)cc1C	-14	0.0	nt	0.2%	nt	nt
Cc1ccc2nc(COc3ccccc3NC(=O)c3ccc(F)cc3)cc(=O)n2c1	36	0.3	nt	-0.3%	nt	nt
COc1ccc(Cl)cc1C(=O)NNC(=S)NC(=O)c1cc(-c2ccccc2)nc2ccccc12	-1	7.5	-1.0	-0.4%	-1	-9
Cc1cc(N2C(=O)C3CC=CCC3C2=O)cc(C)c1Br (stereo not given)	-10	-1.8	-1.9	2.3%	15	14
Cc1n[nH]c(=O)c2c(NC(=O)COC(=O)c3cccc(OC(F)F)c3)oc(C)c12	-3	-0.2	-5.8	-0.6%	-17	10
COc1ccc(OCC(=O)NNC(=O)Nc2cccc(Cl)c2)cc1	16	-0.6	-3.2	0.5%	5	8
COc1cc(S(=O)(=O)N2CCN3CCCC3C2)ccc1-n1cnnn1 (stereo not given)	9	0.0	-0.4	0.8%[38.3 µM]	8	3
O=C(CCn1c(=O)oc2ccccc21)N1CCc2ccccc21	8	-0.6	-4.2	23%	5	3
O=S(=O)(NCCCCCNS(=O)(=O)c1ccc(F)cc1)c1ccc(F)cc1	8	0.0	-0.7	-2.2%	3	-4
CCC(CO)Oc1cc(NCc2ccccn2)c2ncn(C(C)C)c2c1 (stereo not given)	24	0.0	-0.4	-0.4%	?	-18
O=C(O)/C=C/c1cnc2ccccc2n1	-13	-0.4	2.6	0.0%	9	1
Cc1ccc(CSCC(=O)N/N=C/c2cccc(OC3CSC3)c2)cc1	-12	3.7	3.4	3.4%	nt	-3
COc1ccc(N2CCN(CCNC(=O)c3nnc(Cc4c(F)cccc4Cl)o3)CC2)cc1	22	-0.1	0.7	nt	4	9
Cc1ccc(C(=O)N2CCN(CCc3ccncc3)CC2)cc1	5	0.9	nt	0.1%	nt	nt
